# Screening results: PubChem, National Center for Advancing Translational Sciences (NCATS)
# D2 ag = human D2 receptor agonism in beta-arrestin assay | P14416 | DiscoveRx PathHunter D2 beta-arrestin, luminescence, 90 min; 100% = 57 uM dopamine signal | activation, % (no concentration beside the values) | hit rate 0.084% among 360,000 | AID 624465; in the data active = activation above about 40%; inconclusive = about 15% to 40%; inactive = below about 15%; further: compound concentration not given in the record; the text of the record calls up to 30% inactive
# Target sequence (P14416 whole entry, looked up): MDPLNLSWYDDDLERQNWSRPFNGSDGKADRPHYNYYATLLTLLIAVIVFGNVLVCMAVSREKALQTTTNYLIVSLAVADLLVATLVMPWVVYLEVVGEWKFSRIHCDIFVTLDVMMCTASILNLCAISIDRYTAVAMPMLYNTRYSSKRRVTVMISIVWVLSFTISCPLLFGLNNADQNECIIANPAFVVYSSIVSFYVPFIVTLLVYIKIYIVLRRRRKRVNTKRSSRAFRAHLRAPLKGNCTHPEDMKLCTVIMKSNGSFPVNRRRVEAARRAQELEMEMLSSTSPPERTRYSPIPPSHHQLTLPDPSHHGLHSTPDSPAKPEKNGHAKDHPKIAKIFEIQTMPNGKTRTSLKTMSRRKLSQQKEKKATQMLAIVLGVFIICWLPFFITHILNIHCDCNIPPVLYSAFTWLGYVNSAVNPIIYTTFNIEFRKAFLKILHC
#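 Agonist mode: compounds alone added to overnight-plated D2 PathHunter cells for 90 min at 37 C, with 57 uM final dopamine (EC100) defining full response. Beta-arrestin recruitment detected by chemiluminescent reagent, read after 1 h at ambient temperature.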
# gsp agonist = agonists of gsp mutant (McCune-Albright syndrome); gsp mutant cells, cAMP HTRF, 30 min; control for the full effect not named in the record; Potency, µM (titrated, usually from 76.9 µM), without a hit: at the top dose activation (cAMP increase), usual class: activators; hit rate 0.13% among 340,000; AID 624287; active = well fitted activation curve with a large enough effect; inconclusive = small, poorly fitted or top-dose-only effect, or another doubt; inactive = no such curve, though single readings can be large or run the other way; cell line not stated here;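 further: phosphodiesterase inhibitor Ro 20-1724 added with compounds to block cAMP breakdown; potency means the concentration at half of the fitted maximal effect; nearly all actives have a fitted effect of over 60% in size; about a fifth of the inactives were tested at one dose only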
#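 Cells in DMEM/10% FBS with G418 were pretreated with compounds in DMSO plus […] (300 uM stock) for 30 min at 37C. cAMP was measured by HTRF (cAMP-d2 plus anti-cAMP antibody-K) after 30 min at room temperature.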
# Six1-Eya2 inh = Six1/Eya2 interaction inhibition; Q15475+O00167; AlphaScreen GST-Six1/His-Eya2 binding, biochemical; stronger effect = lower value; control for the full effect not named in the record; activity change, % (concentration not given with the values); hit rate 0.56% among 360,000; AID 651725; in the data active = activity change below about -65%; inconclusive = about -30% to -65%; inactive = above about -30%; further: on the % scale 0 is the no-effect control and ±100 the full control effect
#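 AlphaScreen with GST-Six1 and His-Eya2 (5X mix: 250 nM and 500 nM), glutathione donor and nickel acceptor beads; buffer 50 mM Tris pH 8.0, 300 mM NaCl, 1 mM TCEP; 1 h at 37 C in the dark.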
# gsp antag = antagonizes gsp, the McCune-Albright syndrome mutation; gsp-mutant cells, cAMP HTRF, 30 min; control for the full effect not named in the record; Potency, µM (top dose mostly 76.9 µM), inactives show at the top dose activity change, negative = inhibition, usual class: inhibitors; hit rate 0.4% among 340,000; AID 624288; active = falling curve of any shape with a large fitted effect; inconclusive = falling curve, mostly with a smaller effect; inactive = flat or rising curve; cell line not stated here;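 further: intracellular cAMP measured with PDE inhibitor Ro 20-1724 present during compound exposure; potency means the concentration at half of the fitted maximal effect; on the % scale 0 is the no-effect control and ±100 the full control effect; nearly all actives have a fitted effect of over 65% in size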
#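 HTRF cAMP read-out (cAMP-d2 plus anti-cAMP antibody-K in lysis buffer, 30 min RT). Before lysis, cells are exposed to compounds with […] for 30 min at 37C in DPBS containing Ca/Mg, BSA and Tween 20.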
# CtBP-E1A blk = blocks the CtBP interaction with E1A | AlphaScreen GST-E1A/His-CtBP binding, 1536-well; stronger effect = lower value; control for the full effect not named in the record | activity change, % (no concentration beside the values) | hit rate 0.49% among 340,000; in the data active means activity change below about -65%; inconclusive means about -30% to -65%; inactive means above about -30%; further: on the % scale 0 is the no-effect control and ±100 the full control effect; compound concentration not given in the record
#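 Homogeneous bead-based format: GST-tagged E1A captured on glutathione donor beads, His-tagged CtBP on nickel acceptor beads; compounds precede bead addition by 2 h at 37 °C.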
# D2 potentiator = potentiates the human D2 dopamine receptor allosterically; P14416; DiscoveRx D2 beta-arrestin cells, luminescence, 90 min; 100% = 57 uM dopamine signal; potentiation, % (concentration not given with the values); hit rate 0.23% among 360,000; AID 624464; active = potentiation of 50% or more; inconclusive = 30% to 50%; inactive = 30% or less;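 further: compound concentration not given in the record; tested on top of an EC20 dose of dopamine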
#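 PathHunter beta-arrestin assay in DiscoveRx D2 cells. Compounds were added with an EC20 of dopamine (50 nM final) for 90 min at 37 deg C. Luminescence was read 1 h after detection reagent, with 57 uM dopamine as the EC100 control.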
# An asterisk follows results filed as active; ? = inconclusive; . = no result given; [ ] = remark or other dose.
SMILES,D2 ag,gsp agonist,Six1-Eya2 inh,gsp antag,CtBP-E1A blk,D2 potentiator
O=C(NCc1ccco1)c1csc(Nc2ccccc2Cl)n1,3.0,12%,-23,-4%,?,9
CCC(CC)NC(=O)Nc1ccccc1C,2.7,-2%[15.4 µM],3,?,4,-3
CCC[C@H]1CN(c2ccc(OC)cc2)C(=O)[C@@H]1CC(=O)NC,-3.5,?,4,.,-7,.
Cc1ccc(SCc2noc(C(=O)NCC3CCCO3)c2C(=O)O)cc1C (centres undefined),-2.4,-55%[inhibitor],2,?,7,-2
O=C(O)c1cccc(NC(=O)c2ccc3c(c2)C(=O)N(c2cccc([N+](=O)[O-])c2)C3=O)c1,-8.1,-6%,0,-2%,.,-4
CCOC(=O)C1CCN(C(=O)COC(=O)c2nc3nc(C)cc(C)n3n2)CC1,-3.2,5%[15.4 µM],4,5%,-22,-3
CC1(C)CC(=O)C=C(c2ccc3c(c2)OCO3)C1,-3.1,4%,-8,-2%,0,-8
Cc1ccccc1-n1nc(SCC(=O)O)sc1=S,-5.1,9%,-2,1%,13,-3
CC(C)N1CCC(N2CCN(Cc3ccc(-c4ccccc4Cl)o3)CC2CCO)CC1 (centres undefined),-2.7,3%[15.4 µM],0,5%,14,-13
Cc1onc(-c2ccccc2)c1C(=O)N/N=C/c1cccc(O)c1,0.6,-12%,8,-8%,0,-1
COC(=O)c1ccc(C(C(=O)NCc2ccccc2)N(Cc2cccs2)C(=O)c2cnccn2)cc1 (centres undefined),-0.4,6%,24,-8%,38,-3
Cc1cc(C)n(CC(O)Cn2c3ccccc3c3ccccc32)n1 (centres undefined),-1.6,?,-2,-13%,6,14
O=C1C=C(c2ccc(F)c(Cl)c2)C[C@@H](c2ccc(F)cc2)C1,-0.1,-27%,3,-8%,10,-8
CCOc1ccc(Nc2ccc(N3C(=O)CCC3=O)cc2[N+](=O)[O-])cc1,-3.1,19%[15.4 µM],-23,2%,-23,-7
CCCCOC(=O)CCc1nc2ccccc2[nH]1,-3.3,2%,7,6%,14,-21
CCOc1ccc(CC(=O)C2C(=O)CC(C)(C)CC2=O)cc1OCC,-1.8,?,2,1%,4,-11
O=C(NNc1ccc([N+](=O)[O-])cc1[N+](=O)[O-])c1ccco1,-14,1%,-28,35µM*,?,-23
CCOC(=O)c1cnc(SC)nc1Nc1cccc(F)c1,-0.4,?,11,-13%,10,-8
Cn1c(CNc2cccc(Cl)c2)nnc1SCC(=O)OC1CCCCC1,-1.4,-6%,-4,-28%,1,-12
O=C(CCN1C(=O)c2ccccc2C1=O)Nc1ccc(S(=O)(=O)NC2=NCCCCC2)cc1,-1.0,18%,1,8%,6,-8

# Part of the list above, set out differently.
# Results follow in this order: D2 ag, gsp agonist, Six1-Eya2 inh, gsp antag, CtBP-E1A blk, D2 potentiator
> O=C1C=C(c2ccc(F)c(Cl)c2)C[C@@H](c2ccc(F)cc2)C1
  -0.1, -27%, 3, -8%, 10, -8
> CCOc1ccc(Nc2ccc(N3C(=O)CCC3=O)cc2[N+](=O)[O-])cc1
  -3.1, 19%[15.4 µM], -23, 2%, -23, -7
> CCOC(=O)c1cnc(SC)nc1Nc1cccc(F)c1
  -0.4, ?, 11, -13%, 10, -8
> O=C(NNc1ccc([N+](=O)[O-])cc1[N+](=O)[O-])c1ccco1
  -14, 1%, -28, 35µM*, ?, -23
> CCOc1ccc(CC(=O)C2C(=O)CC(C)(C)CC2=O)cc1OCC
  -1.8, ?, 2, 1%, 4, -11
> Cc1cc(C)n(CC(O)Cn2c3ccccc3c3ccccc32)n1 (centres undefined)
  -1.6, ?, -2, -13%, 6, 14

# Continuation:
SMILES,D2 ag,gsp agonist,Six1-Eya2 inh,gsp antag,CtBP-E1A blk,D2 potentiator
Cc1ccccc1S(=O)(=O)c1cc2ccccc2nc1N,-3.8,5%[15.4 µM],8,-43%,-7,0
O=C(CCC(=O)N1CCOCC1)NCc1cccc(C(F)(F)F)c1,-3.6,16%,11,8%,.,-5
FC(F)(F)c1ccc(Cl)c(-n2c(Cc3cccs3)n[nH]c2=S)c1,-3.0,5%,3,-25%,.,-7
CC[C@]12c3[nH]c4cc(-c5ccco5)ccc4c3CCN1C(=O)[C@@H](CC(=O)NCC13CC4CC(CC(C4)C1)C3)C[C@@H]2C(=O)N1CCN(C(=O)c2ccco2)CC1,-3.5,.,-3,-10%,9,-1
C[C@H]1CC[C@H]2C(=O)N[C@H](Cc3ccccc3)C(=O)N2[C@@H]1c1ccccc1,-0.8,.,4,7%,6,-7
O=C(Nc1ccccc1)c1cnc(-c2ccccc2)nc1-c1ccccc1,-1.1,1%,2,8%,8,-8
CS(=O)(=O)N(CC(=O)N1CCN(Cc2ccccc2)CC1)c1ccc2c(c1)OCCO2,-2.9,-55%[inhibitor],1,7%,2,-5
Cc1cccc(N2CCN(CC(=O)Nc3nccs3)CC2)c1C,-0.3,-28%,-1,6%,-5,-36
Cc1cc(C(=O)COc2ccc(Br)cc2F)c(C)n1CC1CCCO1 (centres undefined),-1.2,-41%,2,.,-5,-15
C/C(=N\NC(=O)CNC(=O)c1cccs1)c1ccc(Cl)c(Cl)c1,0.1,?,-6,-6%,-11,-33
CC(C)c1ccc(NC(=O)CSc2nnc(-c3ccccn3)n2C)cc1,-2.5,?,-8,-1%,0,2
CC1(C)CC(=O)C(C=NCCCO)=C(O)C1,0.1,10%,3,3%,0,-9
Cc1csc2c(N3CCCCC3)ncnc12,-3.4,6%,-4,8%,.,-4
Cc1cc(=O)oc2cc(OCC(=O)NC3CCN(Cc4ccccc4)CC3)c(Cl)cc12,-3.2,-26%,-1,-15%,.,-7
O=C(OCC(=O)N1CCNC1=O)c1ccccc1Cl,-2.2,0%,5,.,3,-13
COc1ccc(CNC(=O)C(C)OC(=O)Cn2cnc3c2c(=O)n(C)c(=O)n3C)cc1 (centres undefined),-7.3,?,1,-16%,11,-22
C=CCc1cccc2cc(C(=O)NNC(=O)c3ccncc3)c(=O)oc12,4.7,9%,1,-5%,-1,-5
CC(C)(C)CN1CCNC[C@H]1Cc1cccc2ccccc12,0.3,.,3,9%,0,-8
COC(=O)c1cc(-c2ccc(OC)c(OC)c2)c2c(=O)[nH]c(=O)n(C)c2n1,1.2,0%,6,11%,-12,-1
CCOC(=O)c1ccc(-c2cc(C)no2)[nH]1,-1.1,12%,5,10%,-1,-2

# Two of these compounds, set out differently:
mol | D2 ag | gsp agonist | Six1-Eya2 inh | gsp antag | CtBP-E1A blk | D2 potentiator
Cc1csc2c(N3CCCCC3)ncnc12 | -3.4 | 6% | -4 | 8% | . | -4
CCOC(=O)c1ccc(-c2cc(C)no2)[nH]1 | -1.1 | 12% | 5 | 10% | -1 | -2

# (next part)
SMILES,D2 ag,gsp agonist,Six1-Eya2 inh,gsp antag,CtBP-E1A blk,D2 potentiator
OC[C@@H]1CN(Cc2ccco2)C[C@H](n2cnc3c(Nc4ccccc4)ncnc32)O1,-4.6,.,3,.,1,-2
CC1(C)CC(=O)C(C=NCCN2CCN(C(=S)Nc3cccc(Cl)c3)CC2)=C(O)C1,-2.5,?,0,-28%,0,-2
CN1C[C@@H]2[C@@H]3C(=O)N(C)C(=O)[C@@H]3[C@](C)(C1=O)N2C(=O)c1ccc(C(F)(F)F)cc1,-0.8,.,1,9%,4,-3
COc1cccc(OCCCN2CCCCCC2)c1,0.0,3%,5,7%,3,-4
O=C(/C=C/c1c(Cl)cccc1Cl)N1CCN(c2ncccn2)CC1,-11,-1%,2,6%,2,-4
Cn1nnnc1SCC(=O)Nc1cc(S(=O)(=O)N2CCCCC2)ccc1Cl,1.3,?,-12,17%,-18,-6
Cc1ccc(C(=O)OCC(=O)NCCN2C(=O)CSC2=O)cc1,-3.2,5%[15.4 µM],15,8%,-6,-3
O=C1NC2(CCCCCC2)Cc2ccccc21,-1.7,-36%[inhibitor],0,4%,-13,-5
Fc1ccc(-c2ccc3nccn3c2)cc1Cl,-0.9,.,-3,.,-1,2
CC/C(=N/Nc1ccccc1C)c1cnnc(SC)n1,-6.3,-5%,3,4%,5,-10
CS/C(N)=N/N=C/c1c(O)ccc2ccccc12,-5.1,?,-2,-2%,-15,-12
Cc1cc2[nH]c(=O)c(=O)[nH]c2cc1S(=O)(=O)N1CCN(c2cccc(C)c2C)CC1,-1.1,10%,3,-3%,3,-6
Fc1ccc(CNc2ccc(N3CCN(Cc4ccccc4)CC3)cc2)cc1,6.8,-22%,-72*,2%,-74*,-2
Cc1ccc(C(=O)NC(=S)NCCN2CCOCC2)cc1,-2.6,-1%,6,8%,-5,-9
CNC(=O)c1ccc(NC(=O)/C=C/c2cccc(F)c2)cc1,-0.7,12%,9,1%,-12,-6
CC1=[N+](C)N(c2ccccc2)C(=O)C1N=Cc1ccc(Cl)cc1 (centres undefined),-4.6,-4%,-3,4%,.,-2
CC1(C)C(=O)C=CC(=O)C(C)(C)C(=O)C=CC(=O)C(C)(C)C2=CC=C(O2)C(C)(C)C(=O)C=CC1=O,-1.4,1%,-4,12%,10,-4
O=C(Nc1nc(-c2ccccc2)cs1)c1cccnc1,3.3,6%,3,-2%,7,-11
S=c1[nH]nc(-c2cc(-c3ccccc3)n[nH]2)n1/N=C/c1ccc(Cl)c(Cl)c1,1.5,2%[15.4 µM],-16,?,-16,-18
CN(c1ccc(C(=O)NCCSCc2ccccc2)cc1)S(=O)(=O)c1ccccc1,-2.3,0%,2,4%,0,-14
